# Screens (PubChem)
# Mtb hypoxia rep: Mtb hypoxia fluorescent reporter inhibition. M. tuberculosis hypoxia-regulated fluorescent reporter, fluorescence. fluorescence inhibition, % (no concentration beside the values). 300,000 tested, 0.1% active;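 active = 35 to 45% if threefold the growth effect, above 45% if 1.5-fold the growth effect; inactive = the rest, general growth blockers included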;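 note: wells of about 50 µL received 100 nL stock; 0% = vehicle wells and 100% = reference inhibitor wells; whole bacteria with a GFP reporter of the hypoxia response; strong numbers were not always called active; many hits fall short of the cut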
# BJeLR lethal: BJeLR cell viability loss | AID 1554 | inhibition, % (concentration not given with the values) | BJeLR (HRASV12) viability, CellTiter-Glo ATP luminescence, 48 h; reference of the scale not given here | 300,000 tested, 0.17% active;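 active = replicate mean above 50%; inconclusive = above 50% but judged a plate artefact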;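 note: 50 nL library stock added to about 25 µL; numbers are from one replicate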
# PrP 5UTR inh: suppresses PrP 5' UTR mRNA reporter expression | cell-based PrP 5' UTR mRNA reporter, plate reader | inhibition, % (concentration not given with the values) | 340,000 tested, 0.35% active | AID 488862;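 active = every replicate at 50% or more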;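 note: 0 = median of the neutral control wells; tested in H4 reporter cells; numbers are from one replicate; inactives centre near -14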
# Autofluor counter: compound fluorescence in toxin protease inhibitor counterscreen; compound autofluorescence counterscreen, microsphere flow cytometry; hits give high values; fluorescence intensity (concentration not given with the values); 360,000 tested, 3.1% active;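 active = at least 3 SD above the mean of all compounds, about 16000 in these data; inconclusive = too few beads counted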;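 note: 100 nL of 1 mM stock went into each well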
# Sa RN4220 lethal: S. aureus RN4220 growth inhibition; OD600, 16 h; AID 1259311; inhibition, % (concentration not given with the values); 330,000 tested, 0.33% active;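 active = z-score of -3 or lower and OD600 up to 0.18 on both plates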;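 note: plate controls were untreated cells for no effect and reference antibiotic for full effect; stock transfer was 100 nL into about 80 µL; one replicate is shown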
# Sa ugtP lethal: kills S. aureus RN4220 lacking UgtP; 330,000 tested, 0.54% active; S. aureus RN4220 ugtP deletion, OD600 growth, 16 h; some inactives read as strong as hits; AID 1259309; growth inhibition, % (no concentration beside the values);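 active = z-score under -3 and OD600 up to 0.15 on both plates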;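 note: plate controls were untreated wells for no effect and antibiotic for full effect; wells of about 80 µL received 100 nL stock; the first replicate is given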
# Mtb hypoxia rep growth: further read-out of Mtb hypoxia rep, marked with its call; growth inhibition, %; measured here: M. tuberculosis growth (absorbance);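 0% = vehicle and 100% = reference antibiotic; read after six days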
# An asterisk follows results filed as active; ? = inconclusive; / = not tested or not shown. Outcome played no part in choosing rows; any-hit rate near 4.1%.
SMILES	Mtb hypoxia rep	Mtb hypoxia rep growth	BJeLR lethal	PrP 5UTR inh	Autofluor counter	Sa RN4220 lethal	Sa ugtP lethal
CC[C@@]1(C(=O)OC)N[C@H](CN(C)C(=O)c2ccc(C)cc2)[C@@H]2C(=O)N(Cc3ccccc3)C(=O)[C@@H]21	1	3	/	-17	3116	-0.1	6
O=C(Cc1ccccc1)N1CCN(C(=O)c2cccs2)CC1	16	16	7	-12	2577	-10	-4
O=C(NCCS(=O)(=O)c1ccc(Cl)cc1)c1ccc(F)cc1	2	-8	-4	-42	4564	3.7	6
O=C(NN=Cc1cccs1)[C@H]1C[C@@H]1c1ccccc1	4	-8	/	/	/	-0.2	-7
Cc1ccc(Oc2nnc(-c3ccccc3)c3ccccc23)cc1	3	2	6	-24	21278*	-1.4	90*
Cn1cc(CNC(=O)Nc2ccc3c(c2)OCO3)cn1	10	6	10	-35	4021	5.9	-3
CS(=O)(=O)c1ccc(Cl)c(NC(=O)COC(=O)COc2ccc3c(c2)CCC3)c1	-5	0	-4	-16	?	5.3	13
OCCNc1nc(OCC(F)(F)F)nc(N2CCN(C34CC5CC(CC(C5)C3)C4)CC2)n1	/	/	0	-2	3878	2.0	1
COc1ccc(/C(C)=N/Nc2ccc(C(=O)O)cc2)c(OC)c1	/	/	-7	-77	2538	/	/
Cc1cc(NC(=O)CSc2ccc3nnc(CCNC(=O)c4ccccc4)n3n2)no1	0	-6	-8	13	/	3.1	10
O=C(Nc1ccc2c(c1)C(=O)NC2=O)c1cccc(C(F)(F)F)c1	3	5	3	-51	5897	1.3	10
COc1ccc(C(=O)Nc2c(N)nc(SCC(=O)N3CCC(C)CC3)[nH]c2=O)cc1OC	4	-2	8	-11	4498	4.2	2
Cc1n[nH]c(C)c1S(=O)(=O)N1CCCC(C(=O)NC2CCCCC2)C1 (configuration not stated)	/	/	-1	-15	6796	2.6	-2
c1ccc(NCCCNc2ccccc2)cc1	/	/	3	1	2727	-6.2	-6
COc1ccc(C2C(C(=O)N3CCC(C(N)=O)CC3)CC(=O)N2c2ccc(OC)cc2)cc1 (configuration not stated)	-8	-6	-6	-8	3411	1.3	5
CCN(CC)c1cc(C)c2cc(NC(=O)c3ccccc3OC)ccc2n1	1	7	16	-25	4073	-5.8	1

# Looked up by compound from the entries so far, 2 records:
SMILES	Mtb hypoxia rep	Mtb hypoxia rep growth	BJeLR lethal	PrP 5UTR inh	Autofluor counter	Sa RN4220 lethal	Sa ugtP lethal
Cc1ccc(Oc2nnc(-c3ccccc3)c3ccccc23)cc1	3	2	6	-24	21278*	-1.4	90*
Cc1n[nH]c(C)c1S(=O)(=O)N1CCCC(C(=O)NC2CCCCC2)C1 (configuration not stated)	/	/	-1	-15	6796	2.6	-2

# Other structures follow.
SMILES	Mtb hypoxia rep	Mtb hypoxia rep growth	BJeLR lethal	PrP 5UTR inh	Autofluor counter	Sa RN4220 lethal	Sa ugtP lethal
CC(=O)c1ccc(NC(=O)Nc2ccc3c(c2)nc(C)n3C)cc1	-1	13	1	-52	4208	-0.3	6
CCn1c(C)nc2cc(C(=O)N/N=C/c3ccc(O)cc3)ccc21	/	/	13	3	2326	/	/
Cc1cc(-c2nnc(SCC(=O)c3ccc4c(c3)OCCO4)o2)no1	9	5	-3	-22	2151	-4.1	-14
COc1ccc(NC(=O)Nc2ccc(F)cc2)c(C)c1	0	15	-1	-6	2639	1.6	5
CCCCN(CCCC)CC(O)COc1ccccc1C(=O)Nc1ccccc1 (configuration not stated)	1	-6	-1	-9	3234	2.6	7
O=C(Cc1ccccc1)NN=Cc1cccs1	13	10	/	/	/	3.2	-4
O=C(Nc1cccc(C(F)(F)F)c1)c1cc2c(s1)-c1ccccc1OC2	13	5	-2	-99	1915	-7.5	-1
Cc1cccc(NC(=O)Nc2ccc(C#N)cc2)n1	/	/	11	-14	4535	4.3	-2
Cn1c(=O)c2c(ncn2CCOc2cccc(Br)c2)n(C)c1=O	-4	11	11	-3	2961	3.0	-1
CS/C(N)=N/N=C/c1ccc([N+](=O)[O-])cc1	/	/	0	-40	6785	/	/
COc1ccc(-c2coc3cc4oc(=O)cc(-c5ccccc5)c4cc23)cc1F	7	5	31	-38	2046	11	-10
CC12CCC(C(=O)Nc3ccc(Br)cn3)(OC1=O)C2(C)C (configuration not stated)	-1	5	-6	/	5010	3.0	4
Cc1ccc(O)c(N=Nc2ccc(S(=O)(=O)N3CCOCC3)cc2)c1	4	9	-9	-39	3067	14	2
Cn1c(=O)n(Cc2ccccc2Cl)c(=O)c2c1[nH]c(=S)n2C	1	-3	-2	-19	4112	1.6	3
COC(=O)CCSCC(=O)N1N=C(c2ccc(OC)cc2)CC1c1cccc(OC)c1OC (configuration not stated)	-1	10	-6	-16	4181	5.0	5
CC(C)C(=O)NC(c1cccc([N+](=O)[O-])c1)c1ccc2cccnc2c1O (configuration not stated)	9	5	19	22	3532	22	11
COc1ccc(-c2ccc(NC(=O)c3ccco3)cc2)nn1	13	12	44	42	5911	1.5	-2
O=C1N(c2ccccc2)C2CS(=O)(=O)CC2N1c1ccc(Cl)c(Cl)c1 (configuration not stated)	16	7	-6	-30	12813	0.2	1
COc1ccc2c(-c3ccccc3)cc(SCC(=O)NC(N)=O)nc2c1	20	12	/	-27	4611	0.3	-2
CCOc1ccc(NC(=O)CC2C(=O)Nc3ccccc3N2C(=O)c2ccccc2)cc1 (configuration not stated)	-5	10	3	-13	4791	-1.2	0
COc1ccccc1NC(=O)c1c([N+](=O)[O-])c(C(C)(C)C)nn1C	7	-1	-4	3	6359	14	10
CCC(Sc1ncccc1C(=O)OCCN1CCCC1=O)C(=O)NCc1ccco1 (configuration not stated)	5	5	10	-24	20951*	2.4	10
Cc1ccc(C(=O)n2c(N)nc3ccccc32)cc1	-20	-10	34	74*	2514	2.9	-4
CC1Cc2ccccc2N1C(=O)CSc1nnnn1Cc1ccccc1 (configuration not stated)	/	/	-2	-15	3134	-1.7	7
O=C(Cn1nnc2c(sc3nc4c(c(-c5ccccc5)c32)CCC4)c1=O)c1ccccc1	6	7	0	-17	2786	2.4	-1
CCOC(=O)N1CCN(S(=O)(=O)c2ccc3c(c2)C(C)C(=O)N3)CC1 (configuration not stated)	2	-4	/	-9	3517	0.5	2
COc1ccc2oc(=N)c(C(=O)Nc3ccccc3)cc2c1	/	/	/	-131	2880	3.5	10
COc1ccc(OC)c(N2C(=O)C(Cl)=C(N3CCCCC3)C2=O)c1	-3	0	10	-9	21020*	4.8	3
Cc1csc(NC(=O)CCc2nc3ccccc3s2)n1	-2	-1	-2	9	3019	2.2	-4
CCOC(=O)C1CCN(Cc2c(C(=O)N3CCOCC3)nc3c(C)cccn23)CC1	5	15	15	9	6119	-0.5	-2
Cn1c(C(=O)N2CCCCCC2)cc2c(=O)n(C)c3ccccc3c21	/	/	-7	-29	5988	2.6	12
Cc1cnc(C(=O)N2CCCC(N3CCN(c4ccccc4C)CC3)C2)cn1 (configuration not stated)	12	16	5	-7	6066	0.6	12
OC(COc1cccc2ccccc12)CN1CCN(c2cccc(Cl)c2)CC1 (configuration not stated)	-6	2	8	-16	3593	22	-1
O=C(O)/C=C/C(=O)Nc1ccc(OC(F)(F)F)cc1	1	-1	-7	-20	4813	1.2	2
Oc1ccc(/C=N/Nc2nc(N3CCCCCC3)nc(N3CCCCCC3)n2)c(O)c1	/	/	-4	-21	2841	/	/
COc1cccc2cc(-c3nnc(SCC(=O)Nc4cc(C(F)(F)F)ccc4Cl)n3N)oc12	11	6	-6	-26	23578*	7.1	-1
CCc1cccc(C)c1NC(=O)Nc1c(Br)cnn1C	3	7	-1	-20	3173	1.3	-6
CCOc1ccc(CCNC(=O)CS(=O)Cc2nc(-c3ccc(OC)c(OC)c3)oc2C)cc1OCC (configuration not stated)	1	2	-4	-24	4160	1.6	0
CC(/C=C1\SC(=S)N(NS(=O)(=O)c2ccc(C)cc2)C1=O)=C\c1ccccc1	12	3	1	-10	4946	-4.2	-12
CC(NS(=O)(=O)c1ccc(Br)cc1)C(N)=O (configuration not stated)	3	-1	-6	-14	10039	0.1	5

# In another format: entries from further up.
# Fields – Mtb hypoxia rep	Mtb hypoxia rep growth	BJeLR lethal	PrP 5UTR inh	Autofluor counter	Sa RN4220 lethal	Sa ugtP lethal
> CC(/C=C1\SC(=S)N(NS(=O)(=O)c2ccc(C)cc2)C1=O)=C\c1ccccc1
 : 12	3	1	-10	4946	-4.2	-12
> COc1cccc2cc(-c3nnc(SCC(=O)Nc4cc(C(F)(F)F)ccc4Cl)n3N)oc12
 : 11	6	-6	-26	23578*	7.1	-1
> CCc1cccc(C)c1NC(=O)Nc1c(Br)cnn1C
 : 3	7	-1	-20	3173	1.3	-6
> CCOc1ccc(CCNC(=O)CS(=O)Cc2nc(-c3ccc(OC)c(OC)c3)oc2C)cc1OCC (configuration not stated)
 : 1	2	-4	-24	4160	1.6	0

# Remaining list, next part:
SMILES	Mtb hypoxia rep	Mtb hypoxia rep growth	BJeLR lethal	PrP 5UTR inh	Autofluor counter	Sa RN4220 lethal	Sa ugtP lethal
CC(=O)N1CCN(C(=O)c2ccc(Cl)c(S(=O)(=O)N3CC(C)OC(C)C3)c2)CC1 (configuration not stated)	6	5	/	10	2812	3.9	7
Cc1ccc(S(=O)(=O)N2CCN(C3CC(=O)N(Cc4ccccc4)C3=O)CC2)cc1C (configuration not stated)	6	15	-6	6	12347	3.0	-2
COc1ccc(NC(=O)CN(C)C(=O)/C=C/c2cn(Cc3ccccc3)nc2-c2cccnc2)cc1	5	3	7	-18	?	2.8	13
Cc1cc(C)nc(SCC(=O)Nc2nc(-c3ccccc3)c(-c3ccccc3)o2)n1	7	10	-11	-3	10979	0.9	-20
O=c1[nH]c(CSc2ncccn2)nc2c1cnn2-c1ccccc1	1	12	3	-26	7745	6.7	-3
CCCC(=O)NCCc1ccc(F)cc1	10	10	-3	-2	3972	1.6	0
CC(=O)c1cccc(NC(=O)NCc2cccnc2)c1	1	-2	11	-2	20530*	1.5	2
CC1CCN(C(=O)CN(c2ccccc2)S(=O)(=O)N(C)C)CC1	3	12	-4	-116	4590	4.7	4
O=C(COC(=O)c1ccc([N+](=O)[O-])o1)Nc1nc2ccccc2s1	-6	-11	1	-17	5193	3.6	5
Cc1cc(/C=N/NC(=O)C(=O)NCc2ccccn2)c(C)n1-c1ccccc1	/	/	5	-30	9871	/	/
Cc1c(C(c2ccc(N(C)C)cc2)c2c(C)n(C)n(-c3ccccc3)c2=O)c(=O)n(-c2ccccc2)n1C	9	3	1	1	2557	1.0	3
S=c1[nH]nc(-c2ccccn2)n1/N=C/c1cccs1	/	/	6	-16	9215	/	/
O=C(Nc1ccc2c(c1)CCCN2C(=O)c1cccs1)c1cccc(F)c1	5	18	2	-10	5490	1.2	-5
COc1ccc(CCN2Cc3c(N)cccc3C2=O)cc1OC	4	11	-11	-9	3199	1.1	2
CCCCN(C)Cc1c(O)ccc2c(=O)c(-c3ccccc3OC)coc12	8	12	-8	4	3374	1.1	6
Cc1ccc(CNC(=O)c2ccc(N3CCC4(CC3)CC(c3ccccc3)=NO4)c(N)c2)cc1	8	3	2	-31	3552	-14	-3
CC(NC(=O)CSc1nc2ccccc2n1CCC#N)c1ccc(F)cc1 (configuration not stated)	11	8	-4	-7	2919	1.7	2
Cc1cc(-n2c(SCC(=O)Nc3ccc(Br)cc3)nc3n[nH]c(C)c3c2=N)ccc1Cl	10	-5	3	-10	5729	4.4	-12
COc1cc(OC)cc(C(=O)N[C@H](C(=O)OCC(=O)Nc2ccc3c(c2)OCO3)C(C)C)c1	1	9	/	15	3969	-1.0	-2
Cc1ccc(S(=O)(=O)N(C)C(C)CCc2ccco2)cc1 (configuration not stated)	6	7	/	-4	3528	7.9	6

# Full records from above. Screens in order: Mtb hypoxia rep, Mtb hypoxia rep growth, BJeLR lethal, PrP 5UTR inh, Autofluor counter, Sa RN4220 lethal, Sa ugtP lethal
# Cc1ccc(S(=O)(=O)N(C)C(C)CCc2ccco2)cc1 (configuration not stated) is listed with 6, 7, /, -4, 3528, 7.9, 6
# Cc1cc(-n2c(SCC(=O)Nc3ccc(Br)cc3)nc3n[nH]c(C)c3c2=N)ccc1Cl is listed with 10, -5, 3, -10, 5729, 4.4, -12
# COc1cc(OC)cc(C(=O)N[C@H](C(=O)OCC(=O)Nc2ccc3c(c2)OCO3)C(C)C)c1 is listed with 1, 9, /, 15, 3969, -1.0, -2
